Source: PubChem (PCMD)
Calb biofilm kill: clotrimazole potentiators killing C. albicans biofilm, primary screen, 4-compound mixtures | inhibition, % at 7.6 µM | 120,000 tested, 0.02% active | C. albicans biofilm persisters + clotrimazole, fluorescence viability; primary screen in compound mixtures of four per well;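 active = inhibition above 30.3% in the primary screen of four-compound pools, then above 30% when the compound was retested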;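 note: compounds exposed to preformed 24 h biofilms for 48 h; the number belongs to the whole pool; some results filed as inactive read as strong as hits; inactives centre near 12; 0% = biofilm with clotrimazole alone and 100% = kill control; retested singly at about 60 µM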
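Test system: C. albicans CAF4-2 wild-type biofilms; buffer or medium: RPMI/MOPS medium, pH 7.0; schedule: 24 h biofilm formation, then 48 h compound exposure, 37 °C; detection: Alamar Blue fluorescence; measure: percent inhibition of biofilm viability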
* marks the source's active call; other numbers are inactive results. These rows are one share of the data; rates above refer to the full screens.

SMILES	Calb biofilm kill
Cc1nn(C)c(C)c1CN(C)C(=O)CCCC(=O)O	-2
CCOc1ccc(-c2noc(-c3cccnc3)n2)cc1OCC	11
O=C1CN(C(=O)COC(=O)c2cnc(Cl)c(Cl)c2)c2ccccc2N1	20
CCCN1CCN(CCCNC(=O)CCn2nc(-c3ccccc3)ccc2=O)CC1	-1
COc1ccc(C(=O)N2CCN(Cc3nc(CC4CC4)no3)CC2)cc1	13
CCOC(=O)Cn1c(=NC(=O)C(C)C)sc2c(C)cc(C)cc21	9
Cc1ccc(CNC(=O)C2CCC(CNc3nc(=S)[nH]c4ccccc34)CC2)cc1 (stereo not given)	14
Cc1nnc(SCC(=O)NCc2ccccc2Cl)n(N)c1=O	19
CC1CCN(S(=O)(=O)N2CCC(C(=O)NCc3cccnc3)CC2)CC1	4
CCCCn1cnc2c(c1=O)c1nc3ccccc3nc1n2Cc1ccc2c(c1)OCO2	13
CNC(=O)NC(=O)COC(=O)c1ccc(-n2c(C)ccc2C)cc1	11
NC(=O)C[n+]1ccc(/C=N/O)cc1	14
CCOc1ccc2nc(-c3cc(NC(C)=O)ccc3O)sc2c1	16
CCNC(=S)N1CCN(Cc2ccccc2)CC1	8
CN1C2CCC1/C(=C\c1ccccc1F)C(=O)/C2=C/c1ccccc1F	-1
CCC1=C(OC(=O)N(CC)CC)N2C(=O)OC(=NCC3CC3)[C@]2(Cc2ccccc2)[C@H]2C1=CC[C@H]1C(=O)NC(=O)[C@H]12	-2
O=C(c1ccc(N2CCOCC2)c([N+](=O)[O-])c1)N1CCN(S(=O)(=O)c2cccs2)CC1	6
Nc1ccccc1SCc1ccccc1	13
COc1cc2c(C(=O)N3CCN(C)CC3)c(CSc3ccccc3)n(C)c2cc1Br	7
Cc1ccc(NC(=O)CCNC(=O)c2ccccc2Cl)cc1S(=O)(=O)N(C)C	-8
CCOc1cccc(C(=O)Nc2ccncc2)c1	6
Cc1nnc(-c2ccccc2)[nH]c1=O	10
O=[N+]([O-])c1cc(S(=O)(=O)Nc2ccccc2)ccc1N1CCN(c2ccc(O)cc2)CC1	5
Cc1cccc(OCCn2cc(/C=N/NC(=O)c3ccncc3)c3ccccc32)c1	-8
O=C(COC(=O)c1ccc2c(c1)C(=O)N(CCc1ccccc1)C2=O)Nc1ccc(OC(F)F)cc1	5
C/C(=N\NC(=O)c1ccc(Cl)cc1)c1cccc(NC(=O)c2cccnc2)c1	7
O=C(NCCc1nc2ccccc2[nH]1)/C(=C/c1ccco1)NC(=O)c1ccc(Br)cc1	13
NSc1nc(N)c2nc(-c3ccccc3)c(-c3ccccc3)nc2n1	5
O=C(NCCCN1CCOCC1)c1cc(C(=O)C2CCCCC2)c[nH]1	14
CC(=O)c1sc(-c2ccc(F)cc2)cc1NS(=O)(=O)c1ccccc1	17
Cc1cc(=O)oc2cc(OCC(=O)OCC(=O)NC(=O)NC(C)C)ccc12	17
S=C1NCN(Cc2ccccc2)CN1	16
CCc1ccc(-n2cc(-c3ccc(F)cc3)[n+]3c2SCCC3)cc1	-12
CC1=CC(C)(C)N(C(=O)Nc2ccccc2)c2ccccc21	23
Cc1ccc(SCC(=O)Nc2ccc(S(=O)(=O)Nc3ncccn3)cc2)cc1	12
COc1ccc(COC(=O)N/C=C/c2ccco2)cc1	10
COc1ccc(NC(=O)C/C(C)=N/NC(=O)C(=O)NC(C)C)c(OC)c1	2
CCOC(=O)Cn1nnc(-c2ccccc2)n1	10
COC(=O)CSc1nc(N)c(C#N)c(CC(C)C)c1C#N	3
CCNC(=O)C(Sc1ccccc1)c1ccccc1 (stereo not given)	12

Copied from the list.
CC1=CC(C)(C)N(C(=O)Nc2ccccc2)c2ccccc21 – Calb biofilm kill = 23
Cc1nnc(-c2ccccc2)[nH]c1=O – Calb biofilm kill = 10
CNC(=O)NC(=O)COC(=O)c1ccc(-n2c(C)ccc2C)cc1 – Calb biofilm kill = 11
O=C(NCCc1nc2ccccc2[nH]1)/C(=C/c1ccco1)NC(=O)c1ccc(Br)cc1 – Calb biofilm kill = 13
O=C(COC(=O)c1ccc2c(c1)C(=O)N(CCc1ccccc1)C2=O)Nc1ccc(OC(F)F)cc1 – Calb biofilm kill = 5
CCOc1ccc2nc(-c3cc(NC(C)=O)ccc3O)sc2c1 – Calb biofilm kill = 16

Next part:
SMILES	Calb biofilm kill
CCCCCn1c(=O)[nH]c2cc(C(=O)NCc3ccccn3)ccc2c1=O	13
COc1c(C)cc(C(=O)C2CCCN(C(=O)c3cccc(-n4cccn4)c3)C2)cc1C (stereo not given)	11
CCCCN1C(=S)NC[C@@H]1c1ccccc1	14
Cc1ccc(C)c(N(Cc2ccccc2F)S(C)(=O)=O)c1	5
CS(=O)(=O)N1CCC(C(=O)NCc2ccc(Cl)cc2Cl)CC1	20
Cn1c(SCc2ccc([N+](=O)[O-])cc2)nnc1-c1cccnc1	15
CCOC(=O)COc1c(/C=N\OC)cc(Cl)cc1OC	15
Cc1onc(-c2c(Cl)cccc2Cl)c1C(=O)N1CCN(c2ncccn2)CC1	12
Cc1cc(C)n(-c2ccc(Cl)c(C(=O)Nc3ccc(OC(F)(F)F)cc3)n2)n1	10
CCC(=O)c1ccc(N2CCN(C(=O)c3ccccc3)CC2)c(F)c1	26
Nc1nnc(SCc2ccc(F)cc2)n1-c1ccccc1	15
O=C(c1ccccc1)N1CCN(Cc2ccccc2)CC1	13
CC(C)=CCOc1ccc2ccc(=O)oc2c1	11
Cc1cccc(NC(=O)c2ccccc2NC(=O)CCC(=O)O)c1	10
Cc1ccccc1OCC(O)CN(Cc1ccccc1O)C1CCCCC1 (stereo not given)	0
Cc1ccccc1OCc1nc2ccccc2[nH]1	-5
CC1(C)CC(C(CC(=O)Nc2nccs2)c2ccccc2)CCO1 (stereo not given)	23
O=C(CCCc1ccccc1)NCc1ccccc1	12
Cc1nnc(SCc2ccc([N+](=O)[O-])cc2)o1	9
CCOC(=O)COc1cnc2ccccc2n1	10
O=C(NCc1ccccn1)C1C2C=CC(C2)C1C(=O)Nc1ccc(F)cc1 (stereo not given)	-10
CC(=O)c1ccc(NC(=O)CSc2nnc(-c3ccco3)c(-c3ccco3)n2)cc1	9
Cc1c(NC(=O)C(C)OC(=O)c2ccc([N+](=O)[O-])s2)c(=O)n(-c2ccccc2)n1C (stereo not given)	19
Cc1cc(N2CCN(C)CC2)nc2ccc(NC(=S)N3CCN(c4ccc(F)cc4)CC3)cc12	19
O=C1CC(NCC2CCCO2)C(=O)N1c1ccc(Cl)cc1 (stereo not given)	-1
Cc1cccc(NC(=O)CSc2nnc(-c3n[nH]c4ccccc34)o2)c1	6
NC(=O)CC(NC(=O)c1cccc(Br)c1)c1ccc(NCCN2CCOCC2)c([N+](=O)[O-])c1 (stereo not given)	16
CCN(CC(=O)NC1CCS(=O)(=O)C1)S(=O)(=O)c1cccc(C(C)=O)c1 (stereo not given)	-1
COc1cc(C(=O)NCCOc2ccc(F)cc2)c(Br)c(OC)c1OC	8
COc1ccc(/C=N/n2cnc3c([nH]c4ccc(F)cc43)c2=O)cc1CN1CCCC1	12
O=C(Nc1ccc(-c2nc3ccccc3s2)c(OC(=O)c2ccccc2)c1)c1ccccc1	23
C[C@]12CC[C@@H]3c4ccc(O[C@@H]5O[C@H](C(=O)O)[C@@H](O)[C@H](O)[C@H]5O)cc4CC[C@H]3[C@@H]1C[C@@H](O)[C@@H]2O	-2
O=C(CN1C(=O)C2CC=CCC2C1=O)OCc1cc(=O)n2cc(Br)ccc2n1 (stereo not given)	12
CCOC(=O)c1cc(CC)sc1NC(=O)COC(=O)c1cc[n+]([O-])cc1	19
CCc1ccc(N=c2c([N+](=O)[O-])nn(-c3ccc4c(c3)OCCO4)n2O)cc1	3
O=c1c(Cl)c2oc3ccccc3nc-2c2ccccc12	12
Cc1nccc(-c2cccc(NC(=O)Nc3ccc(Cl)cc3)c2)n1	11
N/C(=N\OC(=O)COc1ccc2ccccc2c1)c1ccncc1	5
COc1cc([N+](=O)[O-])ccc1NC(=O)CSc1nccn1C	6
C=CC(=O)NC(C)(C)CCN1CCOCC1	19
Cc1ccc(Cl)cc1N1CCN(CC(=O)Nc2ccc(CN3CCCCC3)cc2)CC1	15
O=C(COC(=O)Cn1cnc2ccccc2c1=O)NCCC1=CCCCC1	9
CN1CCc2c(sc(/N=C/c3cc(C(C)(C)C)ccc3O)c2C#N)C1	22
Nc1nnc(SCc2ccccc2F)s1	19
Cc1ccc(C)c(SCC(=O)OCC(=O)NCc2ccccc2)c1	6
COc1ccccc1NC(=O)C(C/C=C(/C)Cl)C(C)=O (stereo not given)	6
Cc1cc(-c2onc(C)c2C(=O)Oc2ccc(Cl)cc2)no1	17
O=C(N/N=C/c1ccco1)c1cc(C2CC2)nc2ccccc12	18
CSc1nc(N(C)C)nc(N2CC(=O)N(CCNS(=O)(=O)c3ccc(C)cc3)C2=N)n1	12
CC(C)S(=O)(=O)N1CCCC(C(=O)c2cccc(Cl)c2)C1 (stereo not given)	10
CCn1ncc(Br)c1C(=O)Nc1cc([N+](=O)[O-])ccc1C	7
CC(C)(CO)NCC(O)COc1ccc2c(c1)CCC2 (stereo not given)	16
CCCCNC1=CC(=O)C(=O)c2ccccc21	-2
CC(=O)c1c(C)[nH]c(C(=O)CSc2ccc(F)cc2)c1C	22
CCOC(=O)N1CCC(NCc2c(C(=O)N(C)Cc3ccccc3)nc3ccccn23)CC1	10
CSc1nc(-c2ccccc2)c2cc(Cl)ccc2n1	3
CC(C)c1ccc(C(=O)NN2C(=O)C3CCCCC3C2=O)cc1 (stereo not given)	11
Cc1ccc(CC2CC(=O)N(c3cc(Cl)ccn3)C2=O)cc1 (stereo not given)	14
CCOC(=O)c1[nH]c(C)c(C(=O)OCC(=O)Nc2sc3c(c2C#N)CCCCC3)c1C	18
O=C1NC2(CCCCC2)C(=O)N1Cc1cccc(C(F)(F)F)c1	20

Reprinted at random: 5 compounds from above
SMILES	Calb biofilm kill
Cc1cc(-c2onc(C)c2C(=O)Oc2ccc(Cl)cc2)no1	17
CC(C)S(=O)(=O)N1CCCC(C(=O)c2cccc(Cl)c2)C1 (stereo not given)	10
Cc1ccc(C)c(SCC(=O)OCC(=O)NCc2ccccc2)c1	6
CCOC(=O)c1[nH]c(C)c(C(=O)OCC(=O)Nc2sc3c(c2C#N)CCCCC3)c1C	18
Cc1ccc(CC2CC(=O)N(c3cc(Cl)ccn3)C2=O)cc1 (stereo not given)	14

Next part.
SMILES	Calb biofilm kill
CCOc1ccc(C(C)NC(=O)c2ccccc2F)cc1 (stereo not given)	7
CC(C)Sc1nc2[nH]ncc2c(=O)[nH]1	10
Cc1ccc2c(Cl)c(C(=O)NCCc3ccccc3)sc2c1	15
Cc1cccc(N2CCN(C(=S)Nc3ccc4nc(N5CCN(C)CC5)cc(C)c4c3)CC2)c1C	20
COc1ccc(NC(C)=O)cc1NC(=O)c1ccc2ccccc2c1	8
CCOc1ccccc1NC(=O)CC(O)(C(F)(F)F)C(F)(F)F	18
CCc1[nH]c(=O)[nH]c1C(C)S(=O)(=O)c1ccc(C)cc1 (stereo not given)	12
CCN(CC)S(=O)(=O)c1ccc(NC(=S)NC(=O)C(C)C)cc1	13
Cc1cc(NC(=O)Nc2ccc(C)c(C)c2)no1	16
CS(=O)(=O)N(CC(=O)Nc1ccccc1C(=O)N1CCCC1)c1ccc2c(c1)OCO2	14
COc1ccc(OC)c(NC(=O)c2nc(-c3ccccc3)oc2C)c1	13
CC(O)c1c(-c2ccccc2)nn(C)c1Cl (stereo not given)	9
O=C(CNc1ccc(F)cc1)c1ccccc1	9
Cc1nc(-c2ccccn2)nc(SCC(=O)c2ccc(F)cc2)c1Cl	16
Cc1ccc(N2CC(C(=O)Nc3nnc(SCC(=O)Nc4nc(C)cs4)s3)CC2=O)cc1 (stereo not given)	14
COc1ccc(CSc2ncnc3sccc23)cc1F	8
Cc1ccc(NC(=O)CNC(=O)OCc2ccccc2)cc1C	23
COC(=O)[C@H]1[C@H](C(=O)OC)[C@@H](C(=O)OC)N(c2ccc(OC)cc2)[C@@H]1C(=O)OC	16
Cc1cc(C(=O)N/N=C/c2cccc([N+](=O)[O-])c2O)n[nH]1	19
CCn1c(SCC(=O)NNC(=O)Cc2ccccc2)nnc1-c1ccncc1	23
Clc1ccc(OCCOCCOc2cccc3cccnc23)c(Br)c1	24
Cc1ccc(NCC(O)Cn2cnc3c2c(=O)n(C)c(=O)n3C)cc1 (stereo not given)	22
COCc1cc(N2CCCCC2)nc(-c2ccccc2)n1	9
COc1cc(SC)ccc1C(=O)OCC(=O)NCC(C)C	5
NCC12CC3CC(C1)CC(c1ccc(Cl)cc1)(C3)C2	16
C=CCn1c(O)c(N=NC(=S)Nc2ccccc2C)c2cc(S(=O)(=O)N3CCOCC3)ccc21	8
O=C(COC(=O)c1ccccc1NC(=O)c1ccco1)NC1CC1	19
Cc1cc(C)c(C(=O)COC(=O)CCNS(=O)(=O)c2c(Cl)cccc2Cl)cc1C	8
CCOc1cc(/C=C2\CCCC(C(=O)C(F)(F)F)=C2O)ccc1O	13
O=C(Nc1cccc(-c2nnc(-c3ccccc3)o2)c1)C1CC1	15
Cc1nnc(CN(C)Cc2cn[nH]c2-c2ccc(-c3ccccc3)cc2)o1	11
COc1ccc2cc(C3CC(c4cccs4)=NN3S(C)(=O)=O)c(Cl)nc2c1 (stereo not given)	2
CCc1nnc(NC(=O)c2cc(-c3cccnc3)nc3ccccc23)s1	18
C=CCOc1c(Br)cc(/C=N/O)cc1OCC	-3
O=C(NCC1CCCO1)C(c1ccc(N2CCOCC2)cc1)N(C(=O)Cn1nnc2ccccc21)c1ccccc1F (stereo not given)	10
N=c1c2c(-c3ccccc3)c(-c3ccccc3)n(Cc3ccco3)c2ncn1CCCO	15
CNC(=S)N(Cc1cccs1)Cc1cc2ccc(OC)cc2[nH]c1=O	11
COc1ccc(OC)c(C(=O)Cn2nnc(-c3ccc(N4CCOCC4)cc3)n2)c1	20
CCCCOc1ccc(C(=O)NCCC(=O)NCCCC(=O)OCC)cc1	5
